# TRPML1 blocker: inhibitors of human TRPML1 channel | activity change, negative = inhibition, % (no concentration beside the values) | Q9GZU1 | hit rate 0.02% among 390,000 | TRPML1-inducible cells, Ca2+ dye fluorescence, FDSS; active compounds read low; inhibition of EC80 agonist-evoked calcium signal; in the data active means activity change below about -50%; inconclusive means about -30% to -50%; inactive means above about -30%;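 also: stimulus is agonist 54-4 at its EC80 concentration; % is scaled to controls: 0 for no effect and ±100 for the full control effect; compound concentration not given in the record; the text of the record puts the active cut at -80%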
# Target sequence (Q9GZU1 whole entry, looked up): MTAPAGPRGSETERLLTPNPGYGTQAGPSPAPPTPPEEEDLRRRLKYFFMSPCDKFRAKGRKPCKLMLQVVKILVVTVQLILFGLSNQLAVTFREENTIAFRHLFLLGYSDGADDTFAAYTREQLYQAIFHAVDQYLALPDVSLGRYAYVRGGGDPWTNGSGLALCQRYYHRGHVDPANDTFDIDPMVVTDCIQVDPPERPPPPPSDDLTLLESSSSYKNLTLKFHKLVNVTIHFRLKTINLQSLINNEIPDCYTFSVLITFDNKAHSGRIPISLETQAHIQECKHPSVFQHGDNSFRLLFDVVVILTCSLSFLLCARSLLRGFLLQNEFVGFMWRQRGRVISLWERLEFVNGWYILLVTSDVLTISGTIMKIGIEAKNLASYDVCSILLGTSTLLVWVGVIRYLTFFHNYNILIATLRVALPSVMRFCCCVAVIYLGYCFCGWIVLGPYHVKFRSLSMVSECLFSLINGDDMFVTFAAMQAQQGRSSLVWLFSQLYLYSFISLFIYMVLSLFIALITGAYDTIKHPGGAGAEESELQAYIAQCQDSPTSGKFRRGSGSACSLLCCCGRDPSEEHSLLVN
#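 Calcium fluorescence in TRPML1-DL cells induced overnight with Tet: a 110 s read after compound pin addition, then a 110 s antagonist read after challenge with 54-4 at 4 uM final (EC80).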
# gsp ag: activates gsp, the McCune-Albright syndrome mutation; hit rate 0.13% among 340,000; gsp mutant cells, cAMP HTRF, 30 min; control for the full effect not named in the record; AID 624287; Potency, µM (doses to about 76.9 µM), for inactives: at the top dose activation (cAMP increase), actives largely listed as activators; active = well fitted activation curve with a large enough effect; inconclusive = small, poorly fitted or top-dose-only effect, or another doubt; inactive = no such curve, though single readings can be large or run the other way; cell line not stated here;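 also: phosphodiesterase inhibitor Ro 20-1724 added with compounds to block cAMP breakdown; potency is read from the fitted curve at half-maximal effect; nearly all actives have a fitted effect of over 60% in size; about a fifth of the inactives were tested at one dose only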
#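 Cells in DMEM/10% FBS with G418 were pretreated with compounds in DMSO plus […] (300 uM stock) for 30 min at 37C. cAMP was measured by HTRF (cAMP-d2 plus anti-cAMP antibody-K) after 30 min at room temperature.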
# gsp antagonist: antagonizes gsp, the McCune-Albright syndrome mutation | gsp-mutant cells, cAMP HTRF, 30 min; control for the full effect not named in the record | Potency, µM (top dose mostly 76.9 µM), for inactives: at the top dose activity change, negative = inhibition, hits mostly inhibitors | hit rate 0.4% among 340,000; active = falling curve of any shape with a large fitted effect; inconclusive = falling curve, mostly with a smaller effect; inactive = flat or rising curve; cell line not stated here;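 also: intracellular cAMP measured with PDE inhibitor Ro 20-1724 present during compound exposure; potency is read from the fitted curve at half-maximal effect; % is scaled to controls: 0 for no effect and ±100 for the full control effect; nearly all actives have a fitted effect of over 65% in size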
#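 Cells in G418 medium, seeded 16-24 h, 37C; buffer exchange to DPBS + 1 mM CaCl2, 0.5 mM MgCl2, 0.05% BSA; cpds in DMSO + […] (300 uM stock), 30 min 37C; HTRF cAMP detection.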
# Menin-MLL FL inh: inhibitors of human menin-MLL interaction, wild-type MLL peptide; Fluorescence polarization, fluorescein-MLL peptide displacement from menin; FP activity change, % at 61.4 µM; 290,000 tested, under 10 active; AID 1766; inconclusive = falling polarisation curve, or a change in total fluorescence; inactive = total fluorescence flat and polarisation flat or rising; no compound was filed as active; the % refers to the polarisation; negative = inhibition;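 also: % of control where 0% means no effect; inhibitors lower the polarisation; unlabelled MLL peptide was the positive control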
# TRPML1 agonist: agonists of human TRPML1 channel; Q9GZU1; TRPML1-expressing cells, Ca2+ dye fluorescence, FDSS; host cell line not named in the record; reference of the full effect not given here; activation, % (test concentration not listed); hit rate 0.12% among 410,000; AID 624414; in the data active = activation above about 50%; inconclusive = about 30% to 50%; inactive = below about 30%; also: 0% is about no effect; the text of the record puts the active cut at 80%
#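 Tet-induced TRPML1-DL cells, 1,500 per well, cultured overnight, were loaded with a no-wash Ca2+ dye for 45–90 min. Calcium fluorescence was recorded on the FDSS for 110 s after compound addition, before the EC80 agonist (4 uM 54-4) was added.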
# ClpP mod: qHTS Assay for Activators of ClpP; ATP-dependent Clp protease proteolytic subunit (Bacillus subtilis (strain 168)), P80244; purified B. subtilis ClpP, FRET peptide cleavage, 20 min; Potency, µM (titrated, usually from 57.5 µM), inactives show at the highest dose activity change, negative = active; hit rate 1.9% among 340,000; active = well fitted falling curve with a large enough effect; inconclusive = small, poorly fitted or top-dose-only effect; inactive = no such curve, though single readings can be large or run the other way; also: potency is read from the fitted curve at half-maximal effect; the source files actives as falling curves though it sought activators and does not explain the sign; nearly all actives have a fitted effect of over 65% in size; many hits overshoot -100%
# Target sequence (P80244 whole entry, looked up): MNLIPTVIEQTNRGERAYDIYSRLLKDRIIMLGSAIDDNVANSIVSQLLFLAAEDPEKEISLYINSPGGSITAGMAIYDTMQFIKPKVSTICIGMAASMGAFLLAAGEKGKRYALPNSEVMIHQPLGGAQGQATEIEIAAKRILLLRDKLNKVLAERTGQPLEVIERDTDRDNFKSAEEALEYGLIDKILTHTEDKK
#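 ClpP 10 microg/mL final, pH 8 Tris/KCl buffer with BSA, glycerol, Tween-20; compound pinned in; FRET-FV substrate; RT 20 min; Ex320/Em430; ΔFRET vs ADEP 5.8 microM, DMSO, no enzyme.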
# Starred values were filed as active, the others as inactive; ? = inconclusive; / = no result given; [ ] = remark or other dose.
smiles	gsp antagonist	TRPML1 blocker	ClpP mod	TRPML1 agonist	Menin-MLL FL inh	gsp ag
COc1cc(NC(=O)CSc2ccc(-c3sc(-c4ccccc4)nc3C)nn2)cc(OC)c1	/	-12	-20%	-0.1	/	/
Cc1cc(C)c(S(=O)(=O)N2CCOC2CNC(=O)C(=O)NCCCN2CCOCC2)c(C)c1 (configuration not stated)	1%	-11	-1.7%	0.1	/	-2%
CC1(C)Cc2ccccc2-c2nc3ccccc3c(=O)n21	-14%	4	-0.2%	-0.4	0.0	-19%
CC1=CN2C(=N)/C(=C/c3cn(CCCOc4ccccc4C)c4ccccc34)C(=O)N=C2S1	10%	1	0.5%	0.4	1.5	0%
CCc1nnc(NC(=O)CCC(=O)N2CCN(Cc3ccc(OC)c(F)c3)CC2)s1	10%	2	-2.5%	-0.2	-2.4	?
CCN1CCN(c2cc(C)c3cc(NC(=O)CCC(=O)Nc4ccc(OC)cc4OC)ccc3n2)CC1	1%	0	0.3%	-0.2	-2.0	-5%[15.4 µM]
CC(C)n1cc(/C=C/c2cc[n+](C)cc2)c2ccccc21	?	-22	/	23	?	?
COc1ccc(S(=O)(=O)N2CCN(CC(=O)c3[nH]c(C)c(C(C)=O)c3C)CC2)cc1OC	?	16	0.6%	-0.9	/	2%
O=C/C(=C\Nc1ccccn1)c1nc2ccccc2o1	-3%	?	-21%	0.2	4.4	-37%
COc1c(C(=O)Nc2ccc(CN3CCOCC3)cc2)cc2ccccc2c1Br	-10%	14	3.4%	-0.1	/	-27%[15.4 µM]
CN(C)C(=O)C(OC(=O)c1ccc2c(c1)CCCC2)c1ccccc1 (configuration not stated)	-5%	9	/	-1.0	-2.0	-10%[15.4 µM]
COc1ccc(NC(=O)C(=O)Nc2ccc3nc4n(c(=O)c3c2)CCCCC4)c(OC)c1	/	-4	-4.2%	2.7	/	/
COc1ccc(OC)c(NC(=O)c2c(NCc3ccc(C)o3)sc3c2CCC(C)C3)c1 (configuration not stated)	/	31	-1.0%	-0.2	/	/
CCOC(=O)N1CCC(NC(=O)C2CCN(C(=O)N3CC(C)Oc4ccc(C)cc43)CC2)CC1 (configuration not stated)	-13%	0	-0.7%	0.7	-1.0	-12%
COC(=O)C1=C(C)N(CCc2ccc(OC)c(OC)c2)C(=O)/C1=C\N(C)C	3%	3	2.3%	4.8	-0.2	0%
CN(C)S(=O)(=O)c1ccc(C(=O)Nc2ccnn2C2CCCCC2)cc1	-22%	0	1.6%	-0.1	-0.5	-12%
C=CCn1c(SCc2ccc(C(=O)NCCO)cc2)nc2sc(C)c(C)c2c1=O	/	-10	/	0.1	-0.5	2%[15.4 µM]
O=C(CN1C(=O)C2C3C=CC(C4CC34)C2C1=O)Oc1ccccc1 (configuration not stated)	-7%	10	1.7%	-0.3	-1.2	2%
COc1ccc(-c2csc(NC(=O)c3c(C)noc3C)n2)cc1OC	/	2	-1.3%	-0.1	/	-40%[inhibitor]
Cc1cc2nc(C)n(CCCNC(=O)Nc3ccc(C#N)cc3)c2cc1C	-16%	-3	0.6%	0.7	5.8	3%
c1cc2nnnn2nc1N1CCCCCC1	7%	-1	-0.8%	-0.2	4.0	5%
CCSc1nnc(NC(=O)c2cnccn2)s1	1%	12	-0.3%	0.2	-5.0	21%
CN(CCC1CCOCC1)C(=O)C1CCC(=O)N(CCc2cccc(F)c2)C1 (configuration not stated)	-1%	-7	0.4%	-0.1	/	-5%
CC(=O)Nc1ccc(SCCN2CCN(C)CCC2=O)cc1	/	-7	/	1.3	-5.8	/
CCOc1ccc(-n2nc(CO)c(C(=O)NCC(C)O)n2)cc1 (configuration not stated)	/	11	14µM*	1.2	/	/
CCOCCCNc1nc2cc(OC)c(OC)cc2c2nc(-c3ccccc3)nn12	/	6	?	-0.5	/	/
CCCC(C(=O)NC1CCCC1)N(C(=O)Cn1nnc(-c2ccc(C)o2)n1)c1cccc(O)c1 (configuration not stated)	-26%	-3	/	3.1	-0.8	5%[15.4 µM]
COc1ccc(NC(=O)c2nnn(CC(=O)Nc3cc(C)cc(C)c3)c2N)c(OC)c1	/	31	3.5%	-0.4	/	/
COc1ccc(C)cc1S(=O)(=O)N(C)CC(=O)NC1CC1	3%	-3	-3.0%	0.0	-1.1	?
CC(C)CCNC(=O)C1CC(c2cccc([N+](=O)[O-])c2)=NO1 (configuration not stated)	4%	5	1.4%	-0.5	1.3	7%
CN(NC(=O)Nc1ccccc1)c1cnn(C)c(=O)c1Cl	2%	2	-3.5%	-1.2	4.9	?
COc1ccc(C2=CC3=C(Br)C(=O)C(C)(OC(=O)c4ccc(Cl)nc4)C(=O)C3=CO2)cc1 (configuration not stated)	-18%	-1	-4.5%	2.3	?	/
COc1cccc(N2CCN(C(=O)/C=C/c3ccco3)CC2)c1	/	22	/	0.7	0.3	0%[15.4 µM]
O=C(NCc1ccco1)C(c1ccco1)N(C(=O)Cn1nnc2ccccc21)c1ccc2c(c1)CCC2 (configuration not stated)	-16%	-7	-1.7%	0.0	/	-13%
Cc1cccc(C(=O)Nc2nc(C)c(C(=O)Nc3ccc4c(c3)CCC4)s2)c1	4%	-4	-15%	1.7	5.9	8%
N#C/C(C(=O)NCCc1ccccc1)=C1/N=C(NC(=O)c2cccs2)c2ccccc21	0%	-6	-4.4%	2.3	0.0	?
COc1cc2c(c(OC)c1OC)-c1ccc(NC(=O)c3ccc(F)cc3)c(=O)cc1[C@@H](NC(C)=O)CC2	?	0	-1.3%	0.9	-6.1	19%
Cc1cc(C)n(-c2nncn2/N=C/c2ccccc2F)n1	0%	5	1.7%	-0.6	3.6	5%
O=C(CCCC(=O)OCC(=O)NC1CCCC1)Nc1ccccn1	10%	-8	-3.7%	0.4	3.1	-7%
O=C(O)CSCc1ccc(C(=O)O)o1	11%	-16	0.3%	-0.2	1.9	5%
COc1ccc(CCNC(=O)CCOc2ccc(C(C)(C)C)cc2)cc1OC	-21%	1	-0.8%	0.4	/	-45%
COCCCn1c(C(=O)NCCN2CCOCC2)cc2c(=O)n3cccc(C)c3nc21	11%	-3	3.2µM*	-0.3	2.8	-3%[15.4 µM]
CCCCS(=O)(=O)CC(COc1ccccc1)OC(=O)c1ccccc1 (configuration not stated)	2%	-12	-0.5%	1.9	0.6	-36%
COCCNC(=O)c1[nH]c2cc(C)ccc2c1Sc1ccc(Cl)cc1	/	-6	-1.2%	0.0	/	/
CC1=C(C(=O)Nc2cccnc2)C(c2ccc(F)cc2)n2nc(SCc3ccccc3)nc2N1 (configuration not stated)	/	-8	-2.1%	-0.2	/	/
COc1cc(CNC(C)(C)CO)ccc1OCC(=O)Nc1ccc(Br)cc1	7%	-8	1.5%	0.0	2.7	18%
C=CCNC(=O)CN(Cc1ccccc1)S(=O)(=O)c1ccc(C)cc1	-4%	1	0.4%	0.4	-9.9	-1%
O=C(c1ccc(NC2=NC3CS(=O)(=O)CC3S2)cc1)N1CCN(C(=O)c2ccco2)CC1 (configuration not stated)	6%	19	-0.9%	-0.2	2.3	9%
CCOc1ccc(-n2c(=O)c3sccc3n(CC(=O)NCCc3ccc(OC)c(OC)c3)c2=O)cc1	-12%	10	-1.1%	-0.3	-0.4	-14%
CCN(CC)C(=O)C1CC(=O)OC1(C)C (configuration not stated)	3%	-9	-1.8%	0.7	-3.0	-24%
Cc1cccc(NC(=O)CCCN=C2NS(=O)(=O)c3ccccc32)c1C	5%	1	-3.1%	4.1	/	-8%
COc1ccc(Nc2ncnc3sc(-c4ccccc4)cc23)cc1	-11%	-10	?	1.3	0.2	28%
COCCNC(=O)CCCn1c(SCC(=O)c2ccc(Br)cc2)nc2c(sc3ccccc32)c1=O	/	8	-5.3%	0.0	/	/
Cc1cc(NC(=O)CSc2nc(C(C)C)nc3sc(C)c(C)c23)no1	0%	8	-2.5%	-0.6	4.6	?
COc1cccc(-c2noc(C3CCCN(C(=O)c4ccccc4OC)C3)n2)c1 (configuration not stated)	35µM*	/	0.1%	/	-5.8	0%
Cc1ccc(N2C(=O)CC(N3CCN(C4CCc5ccccc5C4)CC3)C2=O)cc1 (configuration not stated)	6%	-3	-0.3%	-0.5	-0.8	12%
COCCNC(=O)CN(c1ccc(F)cc1)S(=O)(=O)c1ccc2c(c1)OCCO2	7%	18	/	0.3	-0.8	6%
CCOC(=O)CSc1ccc(S(=O)(=O)N2CCCC2)cc1[N+](=O)[O-]	7%	-2	-1.9%	-0.8	0.6	-13%
CC1(C)CC(=O)C(C2=NC3(CCCCC3)Cc3ccccc32)=C(O)C1	-4%	-9	-0.2%	0.0	0.0	?
COC(=O)C1(S(=O)(=O)c2cc(Br)cc3c2N(C(C)=O)CC3)CC1	5%[15.4 µM]	-10	0.8%	1.1	0.0	3%

# Shown with values under each structure: two of the compounds above
# The line under a structure holds: gsp antagonist | TRPML1 blocker | ClpP mod | TRPML1 agonist | Menin-MLL FL inh | gsp ag
O=C(c1ccc(NC2=NC3CS(=O)(=O)CC3S2)cc1)N1CCN(C(=O)c2ccco2)CC1 (configuration not stated)
    6% | 19 | -0.9% | -0.2 | 2.3 | 9%
Cc1cc(NC(=O)CSc2nc(C(C)C)nc3sc(C)c(C)c23)no1
    0% | 8 | -2.5% | -0.6 | 4.6 | ?

# Later entries
smiles	gsp antagonist	TRPML1 blocker	ClpP mod	TRPML1 agonist	Menin-MLL FL inh	gsp ag
Cc1cc(C)nc(-n2nc(C)cc2NC(=O)c2ccc(F)cc2F)n1	-14%	-5	/	-0.4	2.1	-7%
Cc1c(N2C(=O)c3ccc(Br)cc3C2=O)c(=O)n(-c2ccccc2)n1C	1%	-1	0.8%	1.9	5.2	4%
CN(C(=O)c1nc(-c2cccc(F)c2)n2c1CCCCC2)c1ccccc1F	/	-28	-0.1%	1.0	/	/
O=C(NCCCn1ccnc1)C(Cc1ccccc1)N1C(=O)c2ccccc2C1=O (configuration not stated)	4%	-11	-1.3%	-0.4	2.6	8%
CCOC(=O)C1CCN(C(=O)COC(=O)c2c(C)c(CC)nc3ccccc23)CC1	-12%	12	-3.0%	3.3	/	-8%
O=C(CN1C(=O)C2CCCCC2C1=O)NC1CCCc2ccccc21 (configuration not stated)	17%	3	1.2%	-0.2	/	5%
CCOc1cc(N2CCOCC2)c(OCC)cc1NC(=O)CN1CCC(Cc2ccccc2)CC1	-12%	54	-6.3%	3.0	-1.7	-6%
COc1cccc(/C=C2/C(=O)NN(c3ccc(C)c(C)c3)C2=O)c1	11%	5	/	-0.8	4.0	1%

# Screens from PubChem.
